# Screening data as filed in PubChem BioAssay.
# BJeLR viability: MLPCN primary cell-based screen for lethality selective to Ras in HRASV12 cells. BJeLR (HRASV12) viability, CellTiter-Glo ATP luminescence, 48 h; reference of the scale not given here. inhibition, % (no concentration beside the values). 0.17% of 300,000 active;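 active means replicate mean above 50%; inconclusive means above 50% but judged a plate artefact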;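 further: 50 nL library stock added to about 25 µL; numbers are from one replicate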
# RN4220 kill: growth inhibition of S. aureus RN4220, primary screen, OD600. AID 1259311, 2017. inhibition, % (test concentration not listed). 16 h. 0.33% of 330,000 active;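 active means z-score of -3 or lower and OD600 up to 0.18 on both plates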;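 further: plate controls were untreated cells for no effect and reference antibiotic for full effect; stock transfer was 100 nL into about 80 µL; one replicate is shown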
# Autofluor counter: compound fluorescence in toxin protease inhibitor counterscreen | compound autofluorescence counterscreen, microsphere flow cytometry; hits give high values | fluorescence intensity (test concentration not listed) | 3.1% of 360,000 active | AID 624483;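 active means at least 3 SD above the mean of all compounds, about 16000 in these data; inconclusive means too few beads counted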;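 further: 100 nL of 1 mM stock went into each well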
# Sa ugtP lethal: growth inhibition of ugtP-null S. aureus, primary screen, RN4220 ugtP deletion, OD600 | growth inhibition, % (concentration not given with the values) | 0.54% of 330,000 active | 16 h; some inactives read as strong as hits;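 active means z-score under -3 and OD600 up to 0.15 on both plates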;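 further: plate controls were untreated wells for no effect and antibiotic for full effect; wells of about 80 µL received 100 nL stock; the first replicate is given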
# PrP UTR inh: inhibition of PrP 5' UTR reporter expression; cell-based PrP 5' UTR mRNA reporter, plate reader; inhibition, % (no concentration beside the values); AID 488862, 2010; 0.35% of 340,000 active;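 active means every replicate at 50% or more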;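 further: 0 = median of the neutral control wells; tested in H4 reporter cells; numbers are from one replicate; inactives centre near -14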
# Mtb hypoxia rep: PubChem AID 1159583; M. tuberculosis hypoxia-regulated fluorescent reporter, fluorescence; fluorescence inhibition, % (test concentration not listed); 0.1% of 300,000 active;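 active means 35 to 45% if threefold the growth effect, above 45% if 1.5-fold the growth effect; inactive means the rest, general growth blockers included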;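 further: wells of about 50 µL received 100 nL stock; 0% = vehicle wells and 100% = reference inhibitor wells; whole bacteria with a GFP reporter of the hypoxia response; strong numbers were not always called active; many hits fall short of the cut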
# Mtb hypoxia rep growth: second read-out of Mtb hypoxia rep, no call of its own (marks repeat the call); growth inhibition, %; measured here: M. tuberculosis growth (absorbance);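 0% = vehicle and 100% = reference antibiotic; read after six days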
# * marks the source's active call; other numbers are inactive results; u = inconclusive; x = not tested or not shown; & = joins results of further samples.
SMILES,BJeLR viability,RN4220 kill,Autofluor counter,Sa ugtP lethal,PrP UTR inh,Mtb hypoxia rep,Mtb hypoxia rep growth
Cc1cccc(NS(=O)(=O)c2c(C)nc3scc(C)n3c2=O)c1,3,8.3,4116,13,7,3,-5
O=[N+]([O-])/C(C(=C(Cl)Cl)N1CCOCC1)=C1\NCCO1,5,8.3,4065,6,-6,1,1
O=c1cccc2n1Cc1cc3ccccc3nc1-2,3,2.5,3067,0,-121,-2,10
O=C(Cc1cccc(C(F)(F)F)c1)NCC(c1ccco1)N1CCCCC1 (configuration not stated),1,7.8,4746,1,-10,1,-1
Clc1ccc(C(c2ccccc2)N2CCNCC2)cc1 (configuration not stated),-7,-2.7,11134,9,-30,22,15
O=C1CN(c2nc(-c3ccccc3)c3cc(Br)ccc3n2)c2ccccc2N1,-3,6.6,x,-7,x,2,4
CN(C)c1c(F)cc(-c2nn[nH]n2)cc1F,5,3.3,4268,2,10,14,8
CC1CCc2sc(NC(=O)C3CC(Cl)=CCC3C(=O)O)c(C#N)c2C1 (configuration not stated),-4,4.6,4407,-7,-18,-13,4
O=C1NCC(Cc2ccc(O)cc2)N(CCc2cccc3ccccc23)C1=O (configuration not stated),x,7.6&6.4,x,-2&-2,x,6&12,-1&10
COc1ccc(NCC(=O)N/N=C/c2c(C)nn(Cc3ccccc3)c2Cl)cc1,-8,x,2589,x,-4,x,x
CCOc1cc(CNC2CCCC2)cc(Cl)c1OCc1ccccc1,7,2.8,3253,-30,-14,6,16
COC(=O)c1ccc(CSc2nc3c(c(=O)n2-c2ccccc2)SCC3)o1,3,35,4876,0,-17,-13,11
O=C1CC(N2C(=O)/C(=C/C=C/c3ccccc3)SC2=S)C(=O)N1c1ccccc1 (configuration not stated),-16,4.7,2114,1,-7,6,10
N#CC1=C(N)Oc2cc(N)ccc2C1c1cccnc1 (configuration not stated),-13,4.8,2521,6,-33,x,x
COC(=O)c1c(NC(=O)c2cnccn2)sc2c1CCC2,-2,1.7,3809,-11,-14,6,8
O=C(c1ccc(-c2cc(Cl)ccc2Cl)o1)N1CCOCC1,-3,5.0,3649,5,-4,-3,-6
O=C(NCCCn1ccnc1)c1ccc(Br)s1,1,1.1,u,-4,-15,5,1
Cc1cccc(NC(=O)CN2CCN(C(=O)C3CCN(C(=O)/C=C/c4ccccc4)CC3)CC2)c1C,x,1.8,3610,4,-21,-11,8
CN(C)C=Nc1ncc(C(=O)c2ccc(-c3ccccc3)cc2)s1,x,0.8,x,-5,x,-13,6
N#CC1(NC(=O)COC(=O)c2cc([N+](=O)[O-])ccc2N2CCOCC2)CCCCC1,9,0.2,u,-3,-8,0,-8
COc1ccc(NC(=O)CN2C(=O)C(c3ccccc3)=NC23CCCCCC3)cc1,3,4.1,2003,-11,-14,x,x
CC(=O)Nc1ccc(NC(=O)C(C)Sc2nnc(C3CC3)n2-c2ccccc2)cc1 (configuration not stated),x,1.7,8288,0,-14,-8,1
CN(C)c1cccc(C(=O)Nc2cc(C(F)(F)F)ccc2-n2cnc3ccccc32)c1,13,0.7,1979,3,-3,8,5
Cc1nc(SCC(=O)NCCc2ccc(Cl)cc2)nc(C)c1C,7,9.7,9113,6,0,1,-7
Cc1nn(-c2ccccc2)c2sc(-c3n[nH]c(=S)o3)cc12,-2,44,u,34,-4,1,2
Cc1nn(CC(=O)OCC(=O)Nc2ccccc2[N+](=O)[O-])c(C)c1[N+](=O)[O-],-1,-0.6,2512,2,-9,-7,-2
CCOc1ccc(C(=O)Nc2nnc(SCC(=O)NCC3CCCO3)s2)cc1OCC (configuration not stated),0,-4.1,4900,10,-33,4,10
O=C(/C=C/c1ccc(Cl)cc1Cl)NC(=S)Nc1ccccn1,7,0.9,2770,11,-84,x,x
CCCn1nc2cc(C(=O)NC3CCCc4ccccc43)ccc2c1OCC (configuration not stated),4,1.1,3780,4,-16,7,-1
COc1ccc(C2N(c3ccc(OC)cc3)C(=O)C3CCCN32)cc1 (configuration not stated),-9,-0.6,6055,-15,-22,x,x

# Profiles from above. Values in the order: BJeLR viability, RN4220 kill, Autofluor counter, Sa ugtP lethal, PrP UTR inh, Mtb hypoxia rep, Mtb hypoxia rep growth
# CN(C)c1cccc(C(=O)Nc2cc(C(F)(F)F)ccc2-n2cnc3ccccc32)c1 is listed as 13, 0.7, 1979, 3, -3, 8, 5
# Cc1nn(CC(=O)OCC(=O)Nc2ccccc2[N+](=O)[O-])c(C)c1[N+](=O)[O-] is listed as -1, -0.6, 2512, 2, -9, -7, -2

# Next part
SMILES,BJeLR viability,RN4220 kill,Autofluor counter,Sa ugtP lethal,PrP UTR inh,Mtb hypoxia rep,Mtb hypoxia rep growth
CC(c1ccccc1)N(NC(=O)C(O)(c1ccccc1)c1ccccc1)C(=O)c1ccccc1 (configuration not stated),6,3.5,8744,-2,-19,5,-3
O=C(CCl)NCc1c(Cl)cccc1-n1cccc1,-3,2.8,22575*,-1,-18,23,22
OCCCNc1ncnc2c1[nH]c1ccccc12,5,3.3,4284,-1,-10,1,6
COc1ccc(OC)c(C2=Nn3c(nnc3C3CCCCC3)SC2)c1,0,2.7,2896,-9,1,2,-1
O=C(O)c1cccc2c1C(=O)c1ccc(-c3ccc(OC(F)(F)F)cc3)cc1S2(=O)=O,x,4.6,3956,1,-20,21,14
CN(C)S(=O)(=O)c1cccc(NC(=O)CCCC2CCCCC2)c1,-4,-7.4,5049,-13,-25,4,7
Cc1ccc(S(=O)(=O)N(C)C)cc1NC(=O)c1cccs1,-8,2.3,4358,0,-16,-1,-1
CCOC(=O)n1c(=O)n(C)c2ccc(Cl)cc21,5,3.4,2478,5,0,3,4
CCOC(=O)C(O)(c1ccc(NC(=O)Oc2ccccc2)cc1)C(F)(F)F (configuration not stated),-7,14,2432,7,-27,2,0
O=S(=O)(NCC(c1cccnc1)N1CCN(Cc2ccccc2)CC1)c1cc(F)ccc1F (configuration not stated),0,-0.3,6089,0,-2,-7,7
CCOC(=O)N1CCN(S(=O)(=O)c2cccc3ccc(C)nc23)CC1,-17,1.9,11393,4,-24,11,11
N=C1C(c2nc(-c3cccc([N+](=O)[O-])c3)cs2)=C(O)CN1NC(=O)c1ccco1,1,2.9,2035,5,6,-5,-2
COc1cccc(-c2cc(C(=O)Nc3cc(OC)c(OC)c(OC)c3)no2)c1,x,2.2,9925,-7,x,10,8
O=C(c1ccccc1F)c1cn(CC(=O)N2CCOCC2)c2ccccc12,-6,1.7,3990,4,-32,x,x
CCOC(=O)c1c(NC(=O)CN2CCCCC2)sc(C)c1C,2,1.4,3898,58,-21,6,1
Cc1cc(NC(=O)CCC(=O)N(CC(=O)NCC2CCCO2)c2ccc3c(c2)OCCO3)no1 (configuration not stated),11,6.3,2752,7,18,-2,1
COc1cc2c(cc1NC(=O)C(C)Sc1ccc(NC(C)=O)cc1)oc1ccccc12 (configuration not stated),-5,-18,2141,-13,-11,-4,2
O=C(CSc1nccc(=O)[nH]1)NC1CCCCCC1,x,3.0,4015,2,-22,6,-8
COc1ccccc1-n1cnc2c(c1=O)c1nc3ccccc3nc1n2CCc1ccccc1,8,1.9,2773,3,7,1,5
CNC(=S)NN=Cc1ccc(-c2cc([N+](=O)[O-])ccc2Cl)o1,x,7.8,x,-4,x,3,2
Cc1cc(S(=O)(=O)n2cnc3cc([N+](=O)[O-])ccc32)ccc1Cl,3,3.5,8425,8,-30,12,1
CCN(CC)c1ccc(NC(=S)NCC2CCCO2)cc1 (configuration not stated),2,0.6,4084,-2,4,0,5
C/C(=N/NC(=O)C1CCCN1C(=O)c1ccc([N+](=O)[O-])cc1)c1ccc(Br)cc1 (configuration not stated),-10,x,5806,x,-12,x,x
COc1ccc(C(C(=O)NC2CCCC2)N(Cc2ccccc2)C(=O)c2nsc(Cl)c2Cl)cc1 (configuration not stated),-6,6.5,6193,-8,-30,3,-1
CCOc1cc(NC(=S)Nc2ccc(Cl)cc2)c(OCC)cc1NC(C)=O,15,1.8,4562,-1,-5,4,17
Oc1c(Br)cc(Br)cc1/C=N/Nc1ccc(Cl)nn1,21,x,3118,x,36,x,x
C=CCn1c(SCC(=O)c2[nH]c(C)c(C(=O)OCC)c2C)nc2scc(-c3ccccc3)c2c1=O,-15,-1.3,1944,0,-13,11,3
COc1ccc(Cl)cc1NC(=O)C(=O)NCc1ccncc1,3,2.3,2281,2,0,9,1
CSCCNCc1c(C(=O)N2CCOCC2)nc2c(C)cccn12,3,3.2,4693,7,-20,7,10
O=C(c1ccc(Br)o1)N1CCN=C1SCc1cccnc1,-4,0.8,6335,5,-12,x,x
CC(C)c1cc(CNC(=O)CCc2nnc(CCCCc3ccccc3)o2)on1,-4,5.3,4498,3,-27,11,6
O=C1CN(C(=O)COc2c(Cl)cccc2Cl)c2ccccc2N1,11,3.7,6079,-6,-4,-2,12
CCCCN1CCC2C=CCC(C(=O)NCCc3ccccc3)C2C1=O (configuration not stated),x,-2.6,x,-5,x,2,1
CCN(CC)c1nc2n(c(=O)n1)CCO2,-3,0.0,4250,2,4,0,9
Cc1nn(C)cc1C(C)Nc1nc2nonc2nc1N1CCCCC1 (configuration not stated),-11,1.3,3925,3,-28,8,-7
Cc1ccc(OCC(=O)N2CCCCC2)c(Br)c1,2,6.2,17161*,9,-33,24,11
CN1CCC(NC(=O)Nc2ccc(Br)cc2)CC1,-3,1.5,5608,-4,-37,12,7

# Molecules listed so far with a Cl atom (17):
SMILES,BJeLR viability,RN4220 kill,Autofluor counter,Sa ugtP lethal,PrP UTR inh,Mtb hypoxia rep,Mtb hypoxia rep growth
O=[N+]([O-])/C(C(=C(Cl)Cl)N1CCOCC1)=C1\NCCO1,5,8.3,4065,6,-6,1,1
Clc1ccc(C(c2ccccc2)N2CCNCC2)cc1 (configuration not stated),-7,-2.7,11134,9,-30,22,15
CC1CCc2sc(NC(=O)C3CC(Cl)=CCC3C(=O)O)c(C#N)c2C1 (configuration not stated),-4,4.6,4407,-7,-18,-13,4
COc1ccc(NCC(=O)N/N=C/c2c(C)nn(Cc3ccccc3)c2Cl)cc1,-8,x,2589,x,-4,x,x
CCOc1cc(CNC2CCCC2)cc(Cl)c1OCc1ccccc1,7,2.8,3253,-30,-14,6,16
O=C(c1ccc(-c2cc(Cl)ccc2Cl)o1)N1CCOCC1,-3,5.0,3649,5,-4,-3,-6
Cc1nc(SCC(=O)NCCc2ccc(Cl)cc2)nc(C)c1C,7,9.7,9113,6,0,1,-7
O=C(/C=C/c1ccc(Cl)cc1Cl)NC(=S)Nc1ccccn1,7,0.9,2770,11,-84,x,x
O=C(CCl)NCc1c(Cl)cccc1-n1cccc1,-3,2.8,22575*,-1,-18,23,22
CCOC(=O)n1c(=O)n(C)c2ccc(Cl)cc21,5,3.4,2478,5,0,3,4
CNC(=S)NN=Cc1ccc(-c2cc([N+](=O)[O-])ccc2Cl)o1,x,7.8,x,-4,x,3,2
Cc1cc(S(=O)(=O)n2cnc3cc([N+](=O)[O-])ccc32)ccc1Cl,3,3.5,8425,8,-30,12,1
COc1ccc(C(C(=O)NC2CCCC2)N(Cc2ccccc2)C(=O)c2nsc(Cl)c2Cl)cc1 (configuration not stated),-6,6.5,6193,-8,-30,3,-1
CCOc1cc(NC(=S)Nc2ccc(Cl)cc2)c(OCC)cc1NC(C)=O,15,1.8,4562,-1,-5,4,17
Oc1c(Br)cc(Br)cc1/C=N/Nc1ccc(Cl)nn1,21,x,3118,x,36,x,x
COc1ccc(Cl)cc1NC(=O)C(=O)NCc1ccncc1,3,2.3,2281,2,0,9,1
O=C1CN(C(=O)COc2c(Cl)cccc2Cl)c2ccccc2N1,11,3.7,6079,-6,-4,-2,12
